# MLL AF4-AF9 inh – inhibitors of AF4 peptide binding to AF9, primary screen, biochemical, AlphaScreen, biotin-AF4 peptide, FLAG-AF9, single point | inhibition, % at 10 µM | Protein AF-9 (Homo sapiens), P42568 | actives 0.47% (n = 350,000);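 active = every replicate reaching a set inhibition limit, whatever the replicate mean, cut at about 25% in these data; inconclusive = mean inhibition reaches that limit but some replicates miss it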;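 note: 0% = plate neutral control median and 100% = total signal loss; the record names both 10 and 1 µM as test concentration; the first replicate is given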
# Beta apoptosis – inhibitors of cytokine-induced beta cell apoptosis, primary screen, luminescence. protection from apoptosis, % (no concentration beside the values). actives 0.8% (n = 300,000). INS-1E cytokine-induced death, ATP luminescence, 48 h; percent of positive-control rescue, neutral wells zero. AID 435005, 2010;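 active = all replicates at 75% or more, or half of them and the mean; inconclusive = half reach 75% but not the mean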;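 note: 0% = cytokine-treated negative control wells and 100% = positive control rescue; higher means more ATP so stronger rescue from cytokine killing; wells of about 40 µL received 100 nL stock; the first replicate is given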
# RanGTP-Imp inh – inhibitors of RanGTP-importin-beta interaction, primary screen, biochemical, FRET, CFP-Ran, YFP-importin-beta, homogeneous; cell-free CFP-Ran/YFP-importin-beta FRET ratio; actives 1.1% (n = 300,000); inhibition, % (no concentration beside the values); Ran GTPase (GTP-bound) - importin-beta complex; AID 2216, 2009;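 active = most replicates above 15%; inconclusive = exactly half above 15%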;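 note: 0% = DMSO wells and 100% = Ran loaded with GDP instead of GTP; wells of about 40 µL received 100 nL stock; the first replicate is given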
# Vif A3G – inhibitors of Vif binding to APOBEC3G peptide, primary screen, biochemical, TR-FRET, GST-Vif 1-94, biotin-A3G peptide, dose response retest (AID 1117319). one-dose inhibition, %; IC50 in µM for titrated hits. TR-FRET GST-Vif / biotin-A3G peptide binding; higher % means a stronger effect; test concentration not given here; strong numbers were not always called active. Virion infectivity factor (Human immunodeficiency virus type 1 group M subtype B (isolate …. actives 0.57% (n = 260,000);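 active = above the screen mean plus three standard deviations and confirmed in dose response; inconclusive = results disagree or hit not tested in dose response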;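 note: Vif residues 1-94 fused to GST binding biotinylated APOBEC3G peptide 110-148; 0% = full assay without inhibitor and 100% = GST in place of GST-Vif; retest series ran down from 100 µM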
# A1 inh – caspase 3/7 activation in MEF A1-2A-BIM cells, primary screen, A1 inhibitor project, cell-based, luminescence, HTS | Caspase-Glo 3/7 luminescence, 3 h; percent of clofoctol response, vehicle zero | caspase activation, % (no concentration beside the values) | actives 0.066% (n = 330,000);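 active = over half of replicate activation scores above 10%, or exactly half above 10 with the replicate mean above 10; inconclusive = replicate mean below 10 yet half the replicates above 10; inactive = over half of replicates below 10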;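 note: wells of about 30 µL received 50 nL stock; many hits fall short of the cut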
# Calb FLC – C. albicans growth inhibition with fluconazole, primary screen, CaCi-2 strain, Alamar Blue fluorescence. C. albicans CaCi-2 (fluconazole-resistant clinical isolate) + fluconazole, 48 h. growth inhibition, % (no concentration beside the values). actives 0.57% (n = 300,000). AID 1979, 2009;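 active = most replicates above 75%; inconclusive = exactly half above 75%; inactive = most below 75%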;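 note: all wells also contain fluconazole at 8 µg/ml as a sub-toxic cotreatment; 0% = median of DMSO wells and 100% = median of geldanamycin control wells; wells of about 8 µL received 7.5 nL stock; the first replicate is given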
# LANA-H2B inh – blockers of LANA interaction with H2A/H2B – biochemical, FP readout, HTS, primary screen. AID 2629, 2010. inhibition, % (no concentration beside the values). cell-free LANA-H2A/H2B peptide, fluorescence polarization. Protein LANA1 (Human herpesvirus 8 type P (isolate GK18)), Q9QR71. actives 0.6% (n = 320,000); in the data active = inhibition mostly above about 10%, no sharp cut-off; inactive = mostly below about 6.7%;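 note: stock transfer was 7.5 nL into about 10 µL; 0% = median of vehicle wells and 100% = median of positive control wells; one replicate is shown; the record names a cut of 25% in any replicate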
# Target sequence (Q9QR71 whole entry, looked up): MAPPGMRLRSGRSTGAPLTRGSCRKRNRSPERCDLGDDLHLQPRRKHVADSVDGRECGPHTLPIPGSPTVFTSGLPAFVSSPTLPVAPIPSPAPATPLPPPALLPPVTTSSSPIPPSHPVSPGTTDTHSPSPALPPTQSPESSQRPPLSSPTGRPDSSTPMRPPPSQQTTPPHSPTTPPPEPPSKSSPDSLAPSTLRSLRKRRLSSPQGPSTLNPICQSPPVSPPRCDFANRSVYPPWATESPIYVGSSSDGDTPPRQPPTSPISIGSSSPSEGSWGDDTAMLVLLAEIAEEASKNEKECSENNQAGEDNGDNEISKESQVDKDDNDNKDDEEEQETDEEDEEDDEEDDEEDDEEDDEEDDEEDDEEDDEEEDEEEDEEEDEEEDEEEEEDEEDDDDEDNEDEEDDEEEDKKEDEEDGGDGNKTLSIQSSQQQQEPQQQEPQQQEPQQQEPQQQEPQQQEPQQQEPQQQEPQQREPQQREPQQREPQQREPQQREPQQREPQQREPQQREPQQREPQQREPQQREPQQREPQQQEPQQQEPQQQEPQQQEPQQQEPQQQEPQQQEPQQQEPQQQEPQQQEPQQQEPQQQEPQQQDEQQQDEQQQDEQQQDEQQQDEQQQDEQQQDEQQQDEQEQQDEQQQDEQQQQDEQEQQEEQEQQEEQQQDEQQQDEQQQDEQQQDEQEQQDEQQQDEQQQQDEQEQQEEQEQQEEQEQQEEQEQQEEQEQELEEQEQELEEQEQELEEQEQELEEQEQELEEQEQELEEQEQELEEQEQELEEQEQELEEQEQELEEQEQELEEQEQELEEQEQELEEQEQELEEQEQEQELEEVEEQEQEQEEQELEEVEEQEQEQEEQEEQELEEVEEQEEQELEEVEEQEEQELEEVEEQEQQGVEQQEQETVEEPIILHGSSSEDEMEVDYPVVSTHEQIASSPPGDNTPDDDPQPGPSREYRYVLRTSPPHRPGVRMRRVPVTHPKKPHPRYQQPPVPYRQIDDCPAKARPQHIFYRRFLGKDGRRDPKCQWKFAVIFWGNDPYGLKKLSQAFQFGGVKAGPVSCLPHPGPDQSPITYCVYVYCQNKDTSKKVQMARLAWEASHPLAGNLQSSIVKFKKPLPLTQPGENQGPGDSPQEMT
# T cruzi repl – inhibitors of intracellular T. cruzi growth, primary screen, luminescence, NIH3T3 host cells. inhibition, % (test concentration not listed). actives 1.4% (n = 300,000). T. cruzi beta-gal in NIH3T3, 90 h. AID 1885, 2009;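 active = mean inhibition across valid replicates above about 55%, limit read from the data; inconclusive = mean below that limit but half or more replicates reach it; inactive = mean below it, under half of replicates reach it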;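 note: signal also drops with host cell toxicity which is not excluded here; 0% = plate median of DMSO wells and 100% = zero luminescence signal; higher percent means less beta-gal luminescence so fewer parasites; stock transfer was 50 nL into about 50 µL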
# Numbers without * were called inactive; ? = inconclusive; nt = no result given.
SMILES,MLL AF4-AF9 inh,Beta apoptosis,RanGTP-Imp inh,Vif A3G,A1 inh,Calb FLC,LANA-H2B inh,T cruzi repl
COc1ccc(Cn2nnnc2C(C(C)C)N2CCN(c3ccccc3OC)CC2)cc1 (stereo not given),nt,nt,3.2,3%,-0.2,8,0.2,31
CCCN(CC(=O)Nc1ccccc1C)C(=O)c1ccc(S(=O)(=O)N2CCCC2)cc1,-11,-4,1.8,-11%,-0.7,-8,-1.4,-2
COCc1cc(C)nc(Nc2cc(C)ccc2C)c1C#N,-5.4,-2,3.2,-3%,0.1,31,-2.0,-2
Cc1cc(C)c(NC(=O)CS(=O)CC(=O)NC2CCCc3ccccc32)c(C)c1 (stereo not given),nt,-9,4.3,-9%,0.5,3,0.1,-1
CC(=O)Nc1ccc(S(=O)(=O)N(C)CCOCc2ccccc2)cc1,nt,22,0.0,-3%,-0.5,-9,-1.3,-20
CCN1CCN(Cc2nc3ccc([N+](=O)[O-])cc3c(=O)n2-c2ccc(OC)cc2OC)CC1,0.1,-7,5.7,nt,0.4,-7,1.1,-12
CCCCn1c(SCC(N)=O)nc2sc3c(c2c1=O)CCC3,-2.9,0,-4.3,-12%,-0.6,7,-3.8,-10
O=C(CSCc1ccccc1)N1CCN(Cc2ccc3c(c2)OCO3)CC1,nt,0,-1.7,7%,0.1,1,0.0,-25
CC1(c2nnc(-c3ccc(F)cc3)o2)CC(c2ccc([N+](=O)[O-])cc2)=NO1 (stereo not given),-2.4,1,-6.8,2%,-1.0,8,1.8,27
CC(C)n1c(SCC(=O)NC2CC2)nnc1-c1ccco1,0.0,-1,-1.3,nt,1.1,-1,3.5,-2
Cc1oc(CC(C)C)cc1C(N)=O,-2.2,nt,-4.2,15%,-0.1,23,9.7,3
Cc1ccccc1C(=O)NCC(C)NC(=O)c1ccccc1C (stereo not given),3.5,10,-1.2,nt,0.9,1,-1.0,-17
COC(=O)c1ccc(CN2C(=O)c3ccccc3C2=O)o1,3.5,nt,?,nt,1.2,-4,0.7,-4
O=C(NCCN1CCCC1)c1cccc(Cl)c1,1.0,-2,-1.3,6%,-0.2,9,-1.5,-4
Cc1nc2cc(NS(=O)(=O)c3cccc(F)c3)ccc2s1,-2.0,-4,?,4%,1.7,42,3.5,nt
CCOC(=O)c1cnc(N2CCOCC2)[nH]c1=O,nt,3,0.8,0%,0.3,-7,3.8,-12
COc1ccc(NC(=O)CNS(=O)(=O)c2ccc(Cl)cc2)cc1OC,nt,0,0.6,nt,0.1,0,0.1,-1
O=C1CC(Nc2ccccc2)C(=O)N1Cc1ccccc1 (stereo not given),nt,-4,-0.6,3%,-0.5,3,-2.5,-2
CN1CC(=O)N(CC(=O)Nc2ccc3c(c2)CCC3)C1=O,0.5,-6,-1.5,-6%,0.8,7,-7.8,-26
Cc1cc(C)n(C(=O)CNC(=O)c2ccccc2F)n1,-1.2,2,-4.0,nt,-1.0,-7,4.1,-4
CC(=O)Nc1sc2c(c1C(c1ccccc1)N1CCOCC1)CCCC2 (stereo not given),nt,-2,0.2,6%,0.8,7,3.1,15
O=C(CSCc1ccccc1Br)N/N=C/c1ccc(OCC(=O)N2CCCCC2)cc1,nt,-1,-0.5,17%,0.1,7,-1.7,-8
O=C(COC(=O)CCOc1ccccc1)Nc1cc(S(=O)(=O)N2CCCCC2)ccc1Cl,-3.0,-5,-1.6,1%,0.5,4,-3.6,5
Cc1cc(C)c(NC(=O)C2CCN(C(=O)c3ccco3)CC2)c(C)c1,-2.7,0,5.0,nt,0.0,0,-3.6,-5
Cc1ccc(-c2nc(SCC(=O)Nc3cc(C)on3)c3c(=O)n(C)c(=O)n(C)c3n2)cc1,0.2,-2,3.4,nt,0.6,6,-3.7,-47
CCCC(=O)Nc1ccc(C(=O)N/N=C/c2ccc([N+](=O)[O-])o2)cc1,-3.4,nt,-3.6,nt,0.0,5,-1.5,49
COC(=O)c1ccccc1NC(=O)C1CC(=O)N(C2CCCCC2)C1 (stereo not given),nt,6,0.2,23%,0.6,2,-4.1,nt
Cc1ccc(N2CC(C(=O)N3CCCCC3)CC2=O)cc1C (stereo not given),0.5,-24,0.8,3%,1.0,26,-1.3,-4
NC(N)=NS(=O)(=O)c1ccc(N/C=C\C(=O)c2ccncc2)cc1,-2.9,-4,-5.7,4%,0.7,-1,0.7,1
O=C1CC(c2ccncc2)c2cc3c(cc2N1)OCCO3 (stereo not given),nt,-3,-4.3,23%,-0.8,-4,4.7,-14
COC(CNC(=O)c1ccc2c(c1)ncn2-c1ccc(F)cc1F)OC,2.2,-3,4.6,-6%,1.5,3,0.3,-11
Cc1ccccc1C(=O)Nc1cccc(C#N)c1,nt,-4,3.8,21%,0.3,-10,-0.4,-11
COc1cccc(NC(=O)CN(C)C(=O)c2cc(C)oc2C)c1,-1.0,-3,nt,-2%,-0.2,nt,-1.2,nt
COCCCNC(=O)c1sc2ncn(CC(=O)Nc3ccc(C)c(Cl)c3)c(=O)c2c1C,-0.1,1,-2.2,4%,-0.7,12,-3.1,23
Clc1ccc(SCCOCCN2CCCCC2)cc1,nt,-1,1.4,3%,0.7,-42,nt,?
Cc1c(Cl)c(-c2n[nH]c(=S)n2CC(C)C)nn1C,-34,-8,7.6,-2%,0.1,-18,1.8,5
COc1cccc(/C=N/n2c(-c3n[nH]c4c3CCC4)n[nH]c2=S)c1OC,-7.2,-2,0.8,5%,1.6,3,0.7,-12
Cc1ccc(C)c(N2CCN(CCCNC(=O)CCC(=O)N3CCOc4ccc(Cl)cc43)CC2)c1,7.7,6,2.3,nt,0.7,-6,3.5,5
COc1ccccc1Oc1ccc(S(=O)(=O)N2CCCCC2C)cc1 (stereo not given),1.4,1,4.1,nt,-0.4,13,0.3,34
COc1ccc(S(=O)(=O)N2CCCC(C(=O)NCc3ccccc3)C2)cc1 (stereo not given),0.0,0,-1.8,3%,1.5,0,-0.9,4
CC(C(=O)NCc1ccccc1Cl)N1C(=O)c2ccccc2C1=O (stereo not given),-0.3,4,0.0,nt,2.4,4,4.2,-15
COc1cccc(-c2nc(Oc3cccc(C)c3C)c3ccccc3n2)c1O,nt,-1,-0.2,nt,0.6,-11,0.4,-18
CCC(=O)Nc1ccc(C(=O)CN2C(=O)NC3(CCCCCC3)C2=O)cc1,-1.3,-4,nt,12%,-1.0,nt,1.3,nt
COc1ccc(-c2csc(Cc3nc(O)cs3)n2)cc1,1.7,5,4.0,-9%,-4.2,53,1.7,11
CN(C)C1(CN=Cc2cc(Cl)cc([N+](=O)[O-])c2O)CCCCC1,1.2,-5,-4.6,nt,-1.3,0,-1.2,23
CCCCn1c(N)c(N(CC(C)C)C(=O)c2ccc(S(=O)(=O)N3CCCCCC3)cc2)c(=O)[nH]c1=O,6.9,-1,1.8,nt,0.1,-6,-1.5,-4
CCCCn1c(N)c(N(CC(C)C)C(=O)C2CCN(S(=O)(=O)c3ccc(C)cc3C)CC2)c(=O)[nH]c1=O,4.2,3,1.8,5%,0.3,-8,nt,-1
Cc1cc(NC(=O)CN2CC(C)OC(C)C2)n(-c2nc3ccccc3s2)n1 (stereo not given),nt,4,0.2,-6%,-0.3,-2,-0.5,10
COc1ccc(CCNC(=O)c2ccc(NC(=O)CC3SC(N4CCCC4)=NC3=O)cc2)cc1 (stereo not given),-9.7,-1,1.2,-5%,-1.0,13,3.4,1
CCN(CC)CCCNC(=O)c1cn(CC)c2ccc(S(=O)(=O)N3CCc4ccccc4C3)cc2c1=O,-0.4,5,-0.6,-1%,0.5,17,-1.1,3
CN(C)C(CNC(=O)CCc1nc2cc(Cl)ccc2n(Cc2ccccc2)c1=O)c1ccccc1 (stereo not given),8.1,nt,0.7,0%,0.2,0,0.4,41
CC(=O)Nc1ccc(Oc2cncc(Cl)c2)nc1,-4.0,nt,0.2,nt,0.2,0,4.6,-12
CC(=O)c1ccc(NC(=O)CSc2nc3[nH]ncc3c(=O)[nH]2)cc1,4.1,-3,-2.6,-11%,1.3,-1,-6.1,-1
COc1cc(/C=N\NC(=O)C2COc3ccccc3O2)cc(OC)c1O (stereo not given),-23,0,-1.2,7%,-0.2,-5,-4.2,-17
O=C(CNC(=O)c1ccco1)Nc1ccc(S(=O)(=O)N2CCCC2)cc1,nt,4,7.5,2%,0.8,16,4.0,-11
O=C(CCCN1C(=O)c2ccccc2C1=O)Nc1cccc(S(=O)(=O)NC2=NCCC2)c1,1.0,-11,-3.9,2%,-0.7,-7,1.5,-12
O=c1cc(-c2ccccc2)nc(N2CCN(Cc3ccc4c(c3)OCO4)CC2)[nH]1,nt,-1,nt,-8%,0.4,nt,5.4,nt
Cc1ccccc1NS(=O)(=O)c1ccc(OCC(=O)NCc2ccccn2)cc1,0.4,-2,-3.0,2%,-0.1,-4,1.4,-9
NC(=O)C1CCN(CC(=O)NC(=O)NC2CCCC2)CC1,-0.5,-2,0.6,-2%,1.2,34,-0.3,-14
O=C(NCc1ccncc1)c1nc(-c2ccc(C(F)(F)F)cc2)no1,-2.9,4,0.7,10%,-0.3,15,-2.9,-10

# Next structures
SMILES,MLL AF4-AF9 inh,Beta apoptosis,RanGTP-Imp inh,Vif A3G,A1 inh,Calb FLC,LANA-H2B inh,T cruzi repl
COc1ccc(Cl)cc1NS(=O)(=O)c1c(C)nc2sccn2c1=O,-4.5,-12,10,nt,-0.2,-11,-1.1,0
Cc1ccc2c(c1)[C@H]1[C@H](CO2)[C@H](c2ccccc2)[C@]2(C)C(=O)Nc3ccc(Cl)cc3C(=O)N12,3.6,1,nt,nt,-0.5,nt,2.6,nt
C/C(=N\Nc1nc2ccccc2nc1C)c1ccccc1O,0.3,7,3.1,3%,-0.4,-8,1.3,42
O=C(CN1C(=O)S/C(=C\c2ccccc2)C1=O)NCCCn1ccnc1,6.6,5,-0.5,6%,?,-4,-0.4,18
Cc1c(CCC(=O)O)c(=O)oc2cc(OCc3cccc(F)c3)ccc12,-0.9,0,-1.3,-5%,0.6,-3,-2.4,-8
O=C1C(=O)N(CCO)C(c2ccccc2)/C1=C(\O)c1ccccc1 (stereo not given),-0.5,nt,4.9,-7%,0.1,4,-5.3,-5
CCCc1nc2c(c(=O)c3ccccc3n2C)c(=O)n1-c1ccc(F)cc1,nt,5,-0.5,-33%,-1.1,?,8.5,16
Cc1ccccc1NC(=O)C1CCN(c2cnccn2)CC1,nt,-9,-1.2,20%,-0.4,?,-4.4,-12
CSCCC(NC(=O)c1ccccc1Br)C(=O)Nc1ccc(C)cc1 (stereo not given),-2.2,-12,-2.2,nt,0.9,-1,-1.2,10
CCOC(=O)CSc1nc(=O)n2ccc(C)cc2n1,-3.4,-3,-1.0,3%,-0.8,-8,-2.1,-8

# High-throughput results from PubChem BioAssay.
